High-throughput results as filed in PubChem.
D2 potentiator – positive allosteric modulators of human D2 dopamine receptor; P14416; 360,000 compounds, 0.23% hits; potentiation, % (no concentration beside the values); DiscoveRx D2 beta-arrestin cells, luminescence, 90 min; 100% = 57 uM dopamine signal; AID 624464; active = potentiation of 50% or more; inconclusive = 30% to 50%; inactive = 30% or less;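 also: compound concentration not given in the record; tested on top of an EC20 dose of dopamine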
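D2 cells co-treated with compound plus 50 nM dopamine (EC20) for 90 min at 37 deg C to detect potentiation. Beta-arrestin recruitment was read as enzyme-fragment luminescence after 1 h at ambient temperature. Full response was set by 57 uM dopamine.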
TRPML1 ag – agonists of human TRPML1 channel; Q9GZU1; TRPML1-expressing cells, Ca2+ dye fluorescence, FDSS; host cell line not named in the record; reference of the full effect not given here; activation, % (concentration not given with the values); 410,000 compounds, 0.12% hits; in the data active = activation above about 50%; inconclusive = about 30% to 50%; inactive = below about 30%; also: 0% is about no effect; the text of the record puts the active cut at 80%
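Cells: TRPML1-DL, 1X Tet inducer, ~16 h at 37 degrees C/5% CO2. Dye: ABD Ca8 no-wash + quencher, 45-90 min RT. Read: 10 s baseline, compound add, 110 s agonist phase; 54-4 EC80 (4uM final), 110 s antagonist phase.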
PINK1 expr mod – changes PINK1 expression | PINK1 immunofluorescence, high-content cytometry, 24 h | Potency, µM (series often up to 76.6 µM), for the others: at the highest dose activation (PINK1 increase), hits mostly activators | 410,000 compounds, 0.2% hits | AID 624263; active = well fitted activation curve with a large enough effect; inconclusive = small, poorly fitted or top-dose-only effect; inactive = flat fitted curve, though single readings scatter; cell line not stated here;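 also: potency is read from the fitted curve at half-maximal effect; % of control where 0% means no effect; nearly all actives have a fitted effect of over 65% in size; a mitochondrial uncoupler was the plate control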
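PINK1 protein level read as immunofluorescence by microplate cytometer in a fixed, stained stable cell line after 24 h exposure to five compound concentrations, with CCCP as control.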
CtBP-E1A inh – inhibitors of CtBP/E1A interaction. activity change, % (test concentration not listed). 340,000 compounds, 0.49% hits. AlphaScreen GST-E1A/His-CtBP binding, 1536-well; hits give low values; control for the full effect not named in the record; in the data active means activity change below about -65%; inconclusive means about -30% to -65%; inactive means above about -30%; also: % is scaled to controls: 0 for no effect and ±100 for the full control effect
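Protein mix (5X: 125 nM each GST-E1A, His-CtBP) was incubated with pinned compound 2 h at 37 deg C in dark, in 50 mM Tris pH 8.0 buffer with 300 mM NaCl. Glutathione donor and nickel acceptor beads followed; AlphaScreen signal read after 1 h.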
Six1-Eya2 inh – inhibitors of human Six1/Eya2 interaction; Q15475+O00167; AlphaScreen GST-Six1/His-Eya2 binding, biochemical; hits give low values; control for the full effect not named in the record; activity change, % (concentration not given with the values); 360,000 compounds, 0.56% hits; in the data active = activity change below about -65%; inconclusive = about -30% to -65%; inactive = above about -30%; also: % is scaled to controls: 0 for no effect and ±100 for the full control effect
Target sequence (O00167 whole entry, looked up): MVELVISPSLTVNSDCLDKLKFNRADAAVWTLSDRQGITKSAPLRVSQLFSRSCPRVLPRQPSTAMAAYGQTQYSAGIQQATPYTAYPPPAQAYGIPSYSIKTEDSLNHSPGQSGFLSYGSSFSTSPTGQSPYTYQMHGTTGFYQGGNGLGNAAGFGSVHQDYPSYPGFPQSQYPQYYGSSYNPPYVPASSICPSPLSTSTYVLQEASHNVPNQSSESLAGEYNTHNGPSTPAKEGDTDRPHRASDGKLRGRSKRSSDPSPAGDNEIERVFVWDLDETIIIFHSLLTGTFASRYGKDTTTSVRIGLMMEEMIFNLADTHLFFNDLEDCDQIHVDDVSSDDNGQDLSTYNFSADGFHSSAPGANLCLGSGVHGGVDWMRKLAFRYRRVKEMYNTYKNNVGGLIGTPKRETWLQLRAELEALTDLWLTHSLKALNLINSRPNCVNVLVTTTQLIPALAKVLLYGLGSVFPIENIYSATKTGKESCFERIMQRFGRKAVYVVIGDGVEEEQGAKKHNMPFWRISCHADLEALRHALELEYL
Target sequence (Q15475 whole entry, looked up): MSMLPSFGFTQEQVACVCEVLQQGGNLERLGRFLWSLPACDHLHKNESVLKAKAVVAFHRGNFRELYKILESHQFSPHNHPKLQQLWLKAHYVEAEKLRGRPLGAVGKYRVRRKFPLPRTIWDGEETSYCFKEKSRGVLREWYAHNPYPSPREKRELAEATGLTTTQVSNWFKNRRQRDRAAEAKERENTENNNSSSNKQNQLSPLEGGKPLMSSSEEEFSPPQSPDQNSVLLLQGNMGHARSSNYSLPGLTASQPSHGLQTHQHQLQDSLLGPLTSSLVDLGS
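Homogeneous AlphaScreen proximity assay pairing GST-Six1 with His-tagged Eya2 (added as 5X mix: 250 nM and 500 nM) in 50 mM Tris pH 8.0, 300 mM NaCl, 1 mM TCEP. Glutathione donor and nickel acceptor beads; 1 h, 37 °C, dark.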
D2 agonist – activates the human D2 dopamine receptor; 360,000 compounds, 0.084% hits; DiscoveRx PathHunter D2 beta-arrestin, luminescence, 90 min; 100% = 57 uM dopamine signal; activation, % (concentration not given with the values); P14416; AID 624465; in the data active = activation above about 40%; inconclusive = about 15% to 40%; inactive = below about 15%; also: the text of the record calls up to 30% inactive
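Agonist mode: compounds alone added to overnight-plated D2 PathHunter cells for 90 min at 37 C, with 57 uM final dopamine (EC100) defining full response. Beta-arrestin recruitment detected by chemiluminescent reagent, read after 1 h at ambient temperature.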
Active calls of the source: *; ? = inconclusive; . = no result given; & = joins results of further samples; [ ] = dose if it differs, or a comment. No enrichment for hits. About 1.3% of those tested had a hit in this group.

Molecule,D2 potentiator,TRPML1 ag,PINK1 expr mod,CtBP-E1A inh,Six1-Eya2 inh,D2 agonist
O=C(CSc1nnc(-c2ccc(Cl)cc2)n1Cc1ccco1)Nc1ccc2c(c1)OCCO2,-12.6,0.9,-2.4%[38.3 µM],-10.9,-14.0,-2.0
O=C1C=C(c2ccccc2)C(c2ccccc2)C1O (configuration not stated),-2.9,1.4,-5.4%,-7.1,3.2,-1.0
COC(Cn1c(C)c(C(C)=O)c(C(C)=O)c1C)OC,8.3,0.2,0.3%,-0.3,-0.3,0.5
CN(Cc1ccccc1)C(=O)C(=O)c1cn(CC(=O)N2CCCC2)c2ccccc12,8.4,0.5,-0.6%,2.6,2.6,-1.2
CCC(=O)Oc1ccc(NC(=O)CSCc2ccccc2)cc1,-1.1,1.2,1.9%,.,2.3,9.3
OCC1(CCCc2ccccc2)CCN(C2CCC2)CC1,-5.5,0.7,-0.5%,-3.4,1.2,-4.5
c1ccc(-c2csc3ncnc(NCCCN4CCOCC4)c23)cc1,-25.6,-1.2,0.1%,-1.3,-4.3,0.9
O=C(NCc1ccccc1F)c1cc(=O)[nH]c2ccccc12,-1.1,0.3,4.8%,3.0,5.1,-2.2
Cc1cc(Cl)ccc1NC(=O)CN1CCC(C(O)(c2ccccc2)c2ccccc2)CC1,-23.0,0.4,8.4%[38.3 µM],-3.6,-4.8,-3.3
Cc1onc(-c2c(Cl)cccc2Cl)c1NC(=O)NN(C)C,-17.5,-0.8,1.7%,.,7.5,-6.1
N#C/C(=C/c1ccc(N2CCCCC2)o1)C(=O)Nc1ccc2ccccc2c1,-17.2,51.1*,7.08µM*,.,7.7,-9.1
O=C(COC(=O)C1CCC1)NCc1ccc(F)cc1,-6.5,0.3,1.3%,1.9,4.7,-1.3
O=C1NC[C@H](CCCCN2CCN(CCc3ccccc3)C(=O)C2=O)N(CCC2CCCCC2)C1=O,.,-0.8,-0.1%,6.3,-0.1,.
CCN1CCN(C(=O)C(=O)c2cn(CC(=O)N3CCCC3)c3ccccc23)CC1,-15.3,-0.7,1.5%,7.5,-17.0,-2.9
CCN1C(=O)[C@H]2[C@@H](c3ccc(-c4ccc(OC)cc4)cc3)N[C@@](C)(C(=O)OC)[C@H]2C1=O,0.3,0.5,2.0%,1.9,0.3,0.5

One compound at a time, from the list above.
N#C/C(=C/c1ccc(N2CCCCC2)o1)C(=O)Nc1ccc2ccccc2c1 in the list: D2 potentiator = -17.2; TRPML1 ag = 51.1*; PINK1 expr mod = 7.08µM*; CtBP-E1A inh = .; Six1-Eya2 inh = 7.7; D2 agonist = -9.1
O=C1NC[C@H](CCCCN2CCN(CCc3ccccc3)C(=O)C2=O)N(CCC2CCCCC2)C1=O in the list: D2 potentiator = .; TRPML1 ag = -0.8; PINK1 expr mod = -0.1%; CtBP-E1A inh = 6.3; Six1-Eya2 inh = -0.1; D2 agonist = .

Remaining list, next part
Molecule,D2 potentiator,TRPML1 ag,PINK1 expr mod,CtBP-E1A inh,Six1-Eya2 inh,D2 agonist
CCOC(=O)C1=C(CNCCc2ccc(Cl)cc2)NC(=O)NC1c1ccc2c(c1)OCO2 (configuration not stated),22.2,0.5,0.9%,0.6,-16.9,-3.9
CN1CCN(C(=O)c2cc3sccc3n2CC(=O)c2ccccc2)CC1,-18.7,0.4,8.8%[38.3 µM],-5.2,-0.8,-2.4
CCOc1ccc2[nH]c(=O)c(C(c3nnnn3CC3CCCO3)N3CCc4ccccc4C3)cc2c1 (configuration not stated),11.6,-0.1,8.5%[38.3 µM],-2.2,-3.4,-0.8
COc1ccc(C(=O)c2c(N)sc3c2CCN(C(=O)OC(C)(C)C)C3)cc1,10.5,0.8,-0.9%,18.3,1.1,-0.1
COC(=O)c1c(NC(=O)CN2CCN(S(=O)(=O)c3ccccc3[N+](=O)[O-])CC2)sc2c1CCC(C)C2 (configuration not stated),15.5,0.2,0.2%,-0.2,-5.3,0.2
COc1ccc2c(=O)c3c(=O)n(Cc4ccco4)c(C(C)C)nc3oc2c1,-10.4,0.1,10.3%,-7.9,-4.4,-3.2
COc1cccc(-n2c(SCC(=O)NCCC3=CCCCC3)nc3n[nH]c(C)c3c2=N)c1,-4.3,1.6,2.0%,-70.0*,-79.0*,-1.7
O=C(CN1CCN(S(=O)(=O)c2ccccc2)CC1)NCCc1ccccc1,-10.6,0.3,0.7%,-20.1,14.7,-4.7
COc1cc(OC)c(C(=O)OCC(=O)NC2CCCCCCC2)cc1OC,-7.8,0.0,-2.7%,-0.7,0.1,2.0
O=C(CNC(=O)c1ccccc1Cl)N/N=C/c1ccc2c(c1)OCO2,-2.9,-0.4,7.1%,-3.6,-9.5,-4.3
COc1ccc2nc(SCC(=O)Nc3cc(OC)c(OC)cc3C(=O)O)c(C)cc2c1,-4.8,0.4,1.2%,-20.3,12.3,-3.7
CC(OC(=O)C1CCCCC1)c1nc2ccccc2[nH]1 (configuration not stated),-21.4,-0.6,6.3%,-3.3,0.5,-3.6
CCOc1cc(NC(=O)c2cccs2)c(OCC)cc1NC(=O)CCC(=O)NCCN1CCOCC1,3.2,-0.3,0.3%,-10.8,0.0,-0.7
CC(C)(C)[C@H]1COC(=O)CCCC/C=C\C[C@H](CC(=O)NCCO)C(=O)N1,-3.2,0.4,-0.2%,-15.0,13.9,-0.8
CCOc1ccc(CC(=O)C2=C(N3CCOCC3)CC(C)(C)CC2=O)cc1OCC,-5.2,1.7,-0.2%,-1.1,10.0,-4.6

(continued)
Molecule,D2 potentiator,TRPML1 ag,PINK1 expr mod,CtBP-E1A inh,Six1-Eya2 inh,D2 agonist
COC(=O)CCCCCCCCCCN1CCCCC1,-6.4,2.3,2.1%,0.4,9.2,2.3
Cc1nn(CC(=O)NCCc2ccccc2)c(=O)c2cccn12,0.4,-0.8,1.7%,.,9.5,1.3
O=S(=O)(c1ccc(NC(=S)NCCC(c2ccccc2)c2ccccc2)cc1)N1CCOCC1,16.8,2.7,?,-1.5,-6.6,12.4
O=C(Cc1csc(NC(=O)Nc2cccc(Cl)c2)n1)NCc1cccnc1,18.6,-1.0,2.8%,-0.7,-11.5,0.3
COc1ccc(C(=O)N2CCOC2CNC(=O)C(=O)NCc2ccc(Cl)cc2)cc1 (configuration not stated),-7.6,-0.6,-0.3%,-12.6,6.2,-3.7
COc1ccc2[nH]c(C(=O)NCCCN3CCCC3=O)c(C)c2c1,3.0,-0.2,-0.6%,1.7,0.3,0.7
CNC[C@@H](C)NC[C@@H](Cc1ccccc1)NCCc1ccccc1,-56.4,-0.2,1.6%,-7.8,-14.1,0.3
N#CC(Sc1ccccn1)c1ccc(Cl)cc1 (configuration not stated),-5.8,4.3,1.5%,.,-18.5,-12.4
O=c1oc2ccc(Cl)cc2cc1-c1nnc(Nc2cccc(C(F)(F)F)c2)s1,-2.3,0.6,0.9%,-1.8,7.2,-7.9
COc1cc(NC(=O)CN2c3cccc4cccc(c34)S2(=O)=O)cc(OC)c1OC,1.5,-0.2,0.3%,-8.2,-4.8,2.8
O=C1CC(NS(=O)(=O)c2cccnc2)CN1c1ccc(F)cc1 (configuration not stated),-13.9,0.4,-3.8%,7.7,0.0,-1.0
O=S(=O)(Cc1ccccc1)NCC1CCCN(Cc2cccc3nonc23)C1 (configuration not stated),-8.6,-0.5,-3.5%,-5.7,-2.6,-6.0
COCCN(C(=O)c1cc(OC)c(OC)c(OC)c1)c1c(N)n(Cc2ccccc2)c(=O)[nH]c1=O,-10.7,1.4,-0.4%,0.6,6.3,6.6
NC(=O)c1ccccc1NS(=O)(=O)Cc1ccccc1,-3.3,0.0,-0.1%,1.9,7.7,-1.4
COc1ccc(CC(=O)Nc2ccc(NC(=O)c3ccc(Br)cc3)cc2)cc1OC,-7.0,-0.2,8.3%,8.9,10.4,-1.2

Later entries:
Molecule,D2 potentiator,TRPML1 ag,PINK1 expr mod,CtBP-E1A inh,Six1-Eya2 inh,D2 agonist
O=C1C2C3C=CC(C3)C2C(=O)N1CC1CCCO1 (configuration not stated),1.1,0.0,3.1%,4.8,-0.7,1.5
CCC(CC)C(=O)N(C)c1c(C)nc2c(OCc3ccccc3C(=O)OC)cccn12,-14.8,0.5,1.5%,-7.8,-17.1,5.3
CCCCN(C)CC(O)Cn1cc(/C=C/C(=O)c2ccc(C)cc2)c2ccccc21 (configuration not stated),-39.7,2.4&3.3,-1.5%&-1.2%,.,4.0,0.3
COc1ccc(N(CC(O)CN2CCOCC2)S(=O)(=O)c2ccc(C)cc2)cc1 (configuration not stated),-18.7,0.3,-2.4%,0.3,-3.3,-1.0
O=C(O)COc1ccc(/C=N/NC(=O)c2ccccc2Br)cc1,-6.8,-0.2,0.8%,1.4,-2.0,-2.3
COc1cccc(C(=O)Nc2cccc(C(=O)N3CCOCC3)c2)c1,-13.6,1.9,1.2%,1.7,1.6,-1.7
O=C(Nc1cccc([N+](=O)[O-])c1)NC1CCS(=O)(=O)C1 (configuration not stated),-17.6,0.1,0.3%,10.6,6.6,1.6
Cc1ccc(N2CCN(C(=O)NC3CCCCC3)CC2C)cc1 (configuration not stated),-12.8,.,-0.4%,6.9,-4.6,-9.7
CCN(CC1CCCN(CCc2cccc(F)c2)C1)C(=O)c1cc(C)oc1C (configuration not stated),-31.9,-1.6,-0.3%,-5.9,-14.9,-3.9
C[C@H](CO)N1C[C@H](C)[C@@H](CN(C)Cc2ccc(Cl)c(Cl)c2)Oc2c(NC(=O)C3CCOCC3)cccc2C1=O,.,1.0,0.6%,-7.0,-19.3,4.0
CC1CCCN(S(=O)(=O)c2cccc(-c3cn4cccnc4n3)c2)C1 (configuration not stated),?,1.2,1.2%,-2.0,-4.3,-0.6
O=C(c1ccc(Cl)cc1)N1CCC(C(=O)N2CCCc3ccccc32)CC1,-8.2,4.6,-2.0%,-0.3,2.2,0.3
O=[N+]([O-])c1ccc2cccnc2c1,-3.3,-0.4,1.3%,-1.8,-0.6,-0.9
COc1cccc(CNC(=O)c2ccccc2N)c1,-0.9,-1.0,0.6%,-0.2,9.7,0.7
Cc1ccc(/C=C/C(=O)O)cc1S(=O)(=O)NC1CCS(=O)(=O)C1 (configuration not stated),-5.3,0.3,-0.2%,-4.7,1.0,-5.1

(list continues)
Molecule,D2 potentiator,TRPML1 ag,PINK1 expr mod,CtBP-E1A inh,Six1-Eya2 inh,D2 agonist
Cc1ccc(N/C=C2\C(=O)N(c3ccc(F)cc3F)C(c3cccnc3)S2(=O)=O)cc1 (configuration not stated),-2.6,2.4,0.4%,-15.0,-18.2,-1.5
Cc1nc(Sc2cccn2C)c(C(F)(F)F)c(=O)[nH]1,-10.4,-0.6,-6.3%[38.3 µM],-12.6,-14.3,-2.6
COc1ccc(/C=C2\C(=O)NC(=S)N2C(=O)c2ccc(C)cc2)cc1,-14.5,1.2,3.5%,-6.4,-1.4,-2.7
Cc1ccccc1NC(=O)Cn1c(=O)n(-c2ccc(CC(=O)NCC3CCCO3)cc2)c(=O)c2ccccc21 (configuration not stated),-10.3,0.3&-0.6,0.4%&3.0%,.,11.5,-6.2
COc1ccc(C(C#N)=Cc2ccccc2OC)cc1,-6.4,1.2,11.6%,4.8,43.4,-10.6
